ClpP mod: qHTS Assay for Activators of ClpP | Potency, µM (doses to about 57.5 µM), for the others: at the highest dose activity change, negative = active | ATP-dependent Clp protease proteolytic subunit (Bacillus subtilis (strain 168)), P80244 | 1.9% of 340,000 active | AID 651965, 2013 | purified B. subtilis ClpP, FRET peptide cleavage, 20 min; active = well fitted falling curve with a large enough effect; inconclusive = small, poorly fitted or top-dose-only effect; inactive = no such curve, though single readings can be large or run the other way; also: potency is read from the fitted curve at half-maximal effect; the source files actives as falling curves though it sought activators and does not explain the sign; nearly all actives have a fitted effect of over 65% in size; many hits overshoot -100%
Target sequence (P80244 whole entry, looked up): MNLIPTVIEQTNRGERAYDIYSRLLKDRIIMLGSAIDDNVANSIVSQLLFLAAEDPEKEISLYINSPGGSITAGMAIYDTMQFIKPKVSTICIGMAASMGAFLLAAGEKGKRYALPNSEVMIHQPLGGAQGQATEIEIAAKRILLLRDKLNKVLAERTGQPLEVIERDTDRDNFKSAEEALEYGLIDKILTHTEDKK
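ClpP 10 microg/mL final, pH 8 Tris/KCl buffer with BSA, glycerol, Tween-20; compound pinned in; FRET-FV substrate; RT 20 min; Ex320/Em430; ΔFRET vs ADEP 5.8 microM, DMSO, no enzyme.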
TRPML1 blocker: qHTS for Inhibitors of the Human Mucolipin Transient Receptor Potential 1 (TRPML1); 0.02% of 390,000 active; TRPML1-inducible cells, Ca2+ dye fluorescence, FDSS; hits give low values; inhibition of EC80 agonist-evoked calcium signal; Mucolipin-1 (Homo sapiens), Q9GZU1; activity change, negative = inhibition, % (concentration not given with the values); in the data active means activity change below about -50%; inconclusive means about -30% to -50%; inactive means above about -30%;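 also: stimulus is agonist 54-4 at its EC80 concentration; % is scaled to controls: 0 for no effect and ±100 for the full control effect; compound concentration not given in the record; the text of the record puts the active cut at -80%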
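Calcium fluorescence in TRPML1-DL cells induced overnight with Tet: a 110 s read after compound pin addition, then a 110 s antagonist read after challenge with 54-4 at 4 uM final (EC80).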
TRPML1 ag: qHTS for Agonists of the Human Mucolipin Transient Receptor Potential 1 (TRPML1); TRPML1-expressing cells, Ca2+ dye fluorescence, FDSS; host cell line not named in the record; reference of the full effect not given here; activation, % (concentration not given with the values); 0.12% of 410,000 active; in the data active = activation above about 50%; inconclusive = about 30% to 50%; inactive = below about 30%; also: 0% is about no effect; the text of the record puts the active cut at 80%
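Agonist activity was taken from a 110 s kinetic Ca2+ dye read on the FDSS after pinning compounds onto TRPML1-DL cells. The cells were seeded at 1,500/well with Tet inducer, incubated about 16 h, then dye-loaded at room temperature.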
Menin MLL FP FL: qHTS Assay for Inhibitors Targeting the Menin-MLL Interaction in MLL Related Leukemias: Competition With Fluorescein Labeled MLL-derived Peptide. Fluorescence polarization, fluorescein-MLL peptide displacement from menin. FP activity change, % at 61.4 µM. 290,000 tested, under 10 active. AID 1766, 2009; inconclusive = falling polarisation curve, or a change in total fluorescence; inactive = total fluorescence flat and polarisation flat or rising; no compound was filed as active; the % refers to the polarisation; negative = inhibition;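 also: % of control where 0% means no effect; inhibitors lower the polarisation; unlabelled MLL peptide was the positive control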
Sfp inh: qHTS Assay for Inhibitors of Bacillus subtilis Sfp phosphopantetheinyl transferase (PPTase). Biochemical Sfp PPTase activity, qHTS. Potency, µM, for inactives: max response, negative = inhibition, actives largely listed as inhibitors. 3.5% of 310,000 active. 4'-phosphopantetheinyl transferase ffp (Bacillus subtilis), Q9F4F7; active = well fitted inhibition curve with a large enough effect; inconclusive = small, poorly fitted or top-dose-only effect, or another doubt; inactive = no such curve, though single readings can be large or run the other way;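 also: the enzyme is Sfp with the accession as filed and its product quenches rhodamine fluorescence; potency is read from the fitted curve at half-maximal effect; 0% = enzyme reaction without inhibitor and -100% = no enzyme wells; top concentration of the series not given in the record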
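Step 1, compound plus 15 nM Sfp-PPTase, 15 min, room temperature. Step 2, add rhodamine-CoA (5 uM) and BHQ-2-YbbR (12.5 uM). Step 3, read 525/598 nm fluorescence at 0 and 30 min.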
TRPV1 potentiator: HTS Assay for Compounds that Act as Potentiators of the Vanilloid Receptor 1. potentiation, % at 8.33 µM. AID 540277, 2011. Transient receptor potential cation channel subfamily V member 1 (Homo sapiens), Q8NER1. 0.02% of 320,000 active. TRPV1-expressing cells, Fluo-8 calcium influx, capsaicin EC20 potentiation; host cell line not named in the record; control for the full effect not named in the record; active means potentiation above 80%; inconclusive means 30% to 80%; inactive means below 30%; also: 0% is about no effect
Target sequence (Q8NER1 whole entry, looked up): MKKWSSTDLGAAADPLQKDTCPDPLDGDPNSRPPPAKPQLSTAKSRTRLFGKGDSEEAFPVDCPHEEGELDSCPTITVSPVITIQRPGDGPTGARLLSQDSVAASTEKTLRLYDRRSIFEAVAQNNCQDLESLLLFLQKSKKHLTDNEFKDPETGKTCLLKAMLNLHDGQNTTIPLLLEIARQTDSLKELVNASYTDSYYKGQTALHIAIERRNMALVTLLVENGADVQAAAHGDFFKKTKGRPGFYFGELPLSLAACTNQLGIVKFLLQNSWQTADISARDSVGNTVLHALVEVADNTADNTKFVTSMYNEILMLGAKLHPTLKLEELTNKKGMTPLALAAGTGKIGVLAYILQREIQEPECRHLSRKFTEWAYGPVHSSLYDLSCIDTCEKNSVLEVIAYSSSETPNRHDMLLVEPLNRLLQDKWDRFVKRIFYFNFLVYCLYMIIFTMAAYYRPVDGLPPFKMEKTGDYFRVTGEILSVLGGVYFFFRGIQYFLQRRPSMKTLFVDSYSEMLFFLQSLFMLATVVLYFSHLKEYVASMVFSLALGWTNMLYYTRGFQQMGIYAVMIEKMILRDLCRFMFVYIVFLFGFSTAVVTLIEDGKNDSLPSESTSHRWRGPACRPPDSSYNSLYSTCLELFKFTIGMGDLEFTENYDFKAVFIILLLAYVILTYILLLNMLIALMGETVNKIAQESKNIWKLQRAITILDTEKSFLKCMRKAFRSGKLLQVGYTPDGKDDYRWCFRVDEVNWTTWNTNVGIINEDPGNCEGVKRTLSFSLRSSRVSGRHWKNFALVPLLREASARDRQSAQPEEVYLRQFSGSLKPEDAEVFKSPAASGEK
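TRPV1-expressing cells were cultured overnight at 35.5C and loaded with Fluo-8 calcium dye for 40 to 90 min at room temperature. After a 10 s baseline, compound was added and calcium influx was read kinetically for 3 min (ex 480/em 520 nm).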
PINK1 expr mod: A Quantitative High throughput Screen to Identify Chemical Modulators of PINK1 Expression; PINK1 immunofluorescence, high-content cytometry, 24 h; Potency, µM (series often up to 76.6 µM), inactives show at the top dose activation (PINK1 increase), usual class: activators; 0.2% of 410,000 active; active = well fitted activation curve with a large enough effect; inconclusive = small, poorly fitted or top-dose-only effect; inactive = flat fitted curve, though single readings scatter; cell line not stated here;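 also: potency is read from the fitted curve at half-maximal effect; % of control where 0% means no effect; nearly all actives have a fitted effect of over 65% in size; a mitochondrial uncoupler was the plate control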
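Decision-based qHTS: stable cells, 24 h exposure to five compound concentrations, CCCP as control. Fixed cells stained for PINK1 plus nuclear, mitochondrial and cell markers, cytometer read.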
The depositor's hits bear a star; ? = inconclusive; . = no result given; [ ] = dose if it differs, or a comment.

SMILES | ClpP mod | TRPML1 blocker | TRPML1 ag | Menin MLL FP FL | Sfp inh | TRPV1 potentiator | PINK1 expr mod
Cc1ccccc1OCC(=O)N(Cc1nc(-c2ccccc2)no1)C(C)C | -0.4% | -0.5 | 0.5 | 3.4 | 3.5% | -9.9 | -0.5%[38.3 µM]
COCCNC(=O)c1ccc(CS(=O)(=O)c2ccc(OC)cc2)o1 | -0.3% | -11.6 | -0.2 | 0.4 | -3.7% | 20.2 | 1.0%
COc1ccc(S(=O)(=O)N2CCC(C(=O)NCCC(=O)NCc3ccccn3)CC2)cc1 | 0.2% | -7.2 | -0.7 | . | . | . | -0.6%
O=C(CC1CCCC1)NNC(=O)c1ccc(Br)cc1 | 2.1% | -11.7 | -0.4 | . | . | -3.3 | 2.5%
O=C1NCN(c2ccccc2)C12CCN(c1nnnn1-c1ccccc1)CC2 | 0.4% | 6.4 | 1.0 | 0.0 | -2.7% | -5.9 | -1.0%
O=C(NC1=NCCS1)c1ccc(N2CCCC2=O)cc1 | . | 25.0 | 0.3 | 0.8 | 18.9% | 12.9 | -0.4%
Cn1c(=O)c(Sc2ccccc2)c(O)c2ccccc21 | ? | -0.2 | 1.4 | -3.0 | ? | 7.1 | 2.5%
O=C(CCN1C(=O)/C(=C\c2ccccc2)SC1=S)NNC(=O)c1ccncc1 | -0.6% | 2.6 | 0.1 | -0.4 | -4.2% | 7.2 | 0.3%
CC(=O)N1N=C(c2ccccc2)CC1c1ccccc1[N+](=O)[O-] (configuration not stated) | -0.6% | 27.8 | -0.1 | 2.6 | -9.5% | ? | 14.3%
COc1ccc(CCN2CCC(CNC(=O)c3cnn(-c4ccc(C)cc4)c3C3CCN(C(=O)OC(C)(C)C)CC3)CC2)cc1 | -1.9% | -3.5 | 0.5 | . | . | . | -1.6%
CCOC(=O)c1csc(Nc2nc3ccc(F)cc3s2)n1 | 0.5% | 3.1 | -0.9 | 0.0 | 5.4% | -16.4 | 2.0%
CN1C(=O)OC2(C)CCc3ccccc3C12C (configuration not stated) | 0.0% | -14.3 | -0.8 | -3.1 | 7.1% | -5.1 | 0.3%[38.3 µM]
Cc1cccc(C)c1NC(=S)Nc1ccc(F)cc1 | . | -5.7 | 0.0 | -2.0 | 17.6% | 9.7 | 1.8%
O=[N+]([O-])c1cnccc1-n1nnc2ccccc21 | 0.3% | . | -0.5 | . | . | . | 0.2%
CCOc1ccc(NC(=O)[C@H](Cc2ccccc2)NC(=O)C2CCNCC2)cc1 | -0.5% | -3.7 | -0.1 | . | 11.9% | -12.1 | 3.4%
Cc1nc2cccnc2n1-c1cccc(C(=O)NCc2ccc(OC(C)C)cc2)c1 | -2.4% | 8.2 | 1.7 | . | . | . | 0.4%
O=C(CC1N=C2c3ccccc3N=C(SCc3cccc(F)c3)N2C1=O)NCc1ccc2c(c1)OCO2 (configuration not stated) | -12.2% | 7.3 | 0.1 | . | . | . | 6.9%
CCOC(=O)Cn1c(-c2cccnc2Cl)nc2cc(Cl)c(Cl)cc21 | -22.8% | -17.7 | -0.4 | 0.3 | 2.8% | -7.6 | -1.4%[38.3 µM]
CCCCCC(=O)N1C[C@@H](O)[C@H](n2cc(-c3ccc(F)cc3)nn2)C[C@@H]1c1ccc(OC)cc1 | 3.5% | 25.5 | 5.5 | . | . | . | 1.0%
COc1ccc(OCC(=O)NS(=O)(=O)c2ccccc2)cc1 | . | 35.2 | 0.6 | -0.9 | 14.6% | 7.7 | -1.4%
Cc1cc(C(C)(C)C)oc1C(=O)N(CC(=O)NC1CCCC1)c1c(C)cccc1C | 0.9% | -14.3 | ? | 0.9 | 9.5% | -11.4 | -0.3%[38.3 µM]
Cc1cc(C(C)(C)C)oc1C(=O)N(CC(=O)NC1CCCC1)Cc1ccccc1Cl | 0.8% | 13.6 | 5.0 | 0.4 | -14.9% | -28.5 | .
Cc1ccc(NC(=S)NNC(=S)NNc2ccccc2)cc1C | 0.4% | 10.0 | -0.4 | . | . | . | ?
Cc1ccccc1S(=O)(=O)Oc1ccccc1C(=O)Oc1ccccc1 | 25.1µM* | 26.9 | -0.1 | 3.0 | 9.5% | -2.0 | 6.0%
FC(F)Sc1ccc(NC(=S)NCc2ccccc2)cc1 | . | 8.0 | 2.1 | 2.0 | 17.2% | -8.6 | 14.1µM*
Cc1cc(N/C=C\C(=O)c2ccc(Cl)c(Cl)c2)no1 | -1.2% | 0.4 | 0.9 | 5.7 | 2.0% | 20.4 | 2.9%
O=S(=O)(c1ccccc1)c1cnn(-c2ccccc2)c1-c1ccc(F)cc1 | 0.4% | -7.5 | 0.7 | -0.9 | 7.6% | 1.3 | .
Cc1cccc(N2CCN(C(=O)c3cccc(N4CCCC4=O)c3)CC2)c1C | -1.0% | 0.7 | -1.2 | . | 5.4% | -5.0 | 4.9%
Cc1oc(-c2ccc(F)cc2)nc1CN(Cc1ccccn1)CC1CCCO1 (configuration not stated) | . | -12.6 | 1.1 | -10.8 | -0.3% | -1.6 | -0.2%
Nc1nnc2cc(Br)ccc2n1 | 0.5% | -12.4 | 6.2 | . | . | . | -1.2%
Cc1cccc(NC(=O)CCN2CCN(c3ccccc3F)CC2)c1 | -1.4% | 8.7 | 0.0 | . | . | . | 5.4%
Cc1onc(-c2ccccc2Cl)c1C(=O)NCCCN1CCOCC1 | -1.4% | -5.2 | -0.5 | 1.6 | 13.3% | 5.6 | -2.4%
CSc1cccc(NC(=O)c2ccc3c(c2)CCCN3S(C)(=O)=O)c1 | -27.4% | 24.6 | 0.6 | . | . | . | -0.6%
O=C(CCl)NN=C(c1ccccc1)c1ccccc1 | . | 14.1 | 0.3 | -7.1 | 0.8% | -7.6 | 19.4%
Cc1cc(=O)[nH]c(N2CCCNCC2)n1 | . | 12.1 | 0.3 | -3.2 | 5.4% | ? | -1.4%
COc1ccc(Br)cc1CN(C)C(=O)c1ccc2c(c1)NC(=O)C(C)S2 (configuration not stated) | . | 32.8 | 1.9 | 0.4 | -3.5% | 29.1 | -0.3%
O=C(NNC(=O)c1ccc([N+](=O)[O-])o1)c1ccccc1 | 0.7% | -1.6 | -0.5 | 3.7 | 7.4% | -25.7 | -3.0%
COc1ccc(Cl)cc1C(=O)Nn1c(C)nc2ccccc2c1=O | -5.9% | -16.9 | 0.0 | 8.0 | 16.1% | 0.9 | 0.8%[38.3 µM]
Cc1cc(C)c2nc(N3CCCN(C(=O)c4ccco4)CC3)c(C#N)cc2c1 | -6.8% | 7.1 | 0.7 | ? | 44.7µM* | -17.1 | .
Cc1cc(CNC(=O)COC(=O)C2CC3CCCC(C2)C3=O)cc(C)c1O (configuration not stated) | 0.2% | 4.6 | -0.6 | . | . | . | -0.5%
CCc1cccc(C)c1NC(=S)NCC1CCN(c2ccc(OC)cc2)C1 (configuration not stated) | . | -4.9 | 1.0 | 3.8 | -7.7% | -8.5 | ?
Cc1ccc(C(=O)NCC(=O)N2CCCN(S(=O)(=O)c3ccc(C)cc3)CC2)cc1 | -2.2% | 1.9 | 1.4 | . | . | 3.3 | 3.1%
C/C(=N\NC(=O)Cn1c(C)nc2ccccc21)c1cccs1 | 1.7% | 6.6 | 0.0 | 2.0 | 14.4% | 13.5 | 1.4%
CCOC(=O)N1CCN(CCC(=O)Nc2ccccc2)CC1 | 0.8% | 2.5 | 0.4 | -2.6 | 0.2% | 8.6 | 0.3%
O=C(CCC(=O)c1ccccc1)Nc1cccnc1 | -0.8% | 10.4 | 0.3 | 2.3 | 24.0% | 2.2 | -0.9%
CC1CCN(C(=O)CSc2nc3c(cnn3-c3ccccc3)c(=O)[nH]2)CC1 | -0.8% | -19.5 | -0.6 | 10.1 | -8.8% | . | -0.4%
CCOc1cc(N2CCOCC2)c(OCC)cc1NC(=O)CN1C(=O)NC(CC)(c2ccc(F)cc2)C1=O (configuration not stated) | -3.7% | -4.4 | 2.1 | . | . | . | -0.6%
COc1ccc(S(=O)(=O)Cc2ccc(C(=O)NCc3ccccn3)o2)cc1 | 1.3% | -1.0 | 1.0 | -5.6 | 11.2% | 12.8 | -4.0%
OCCc1ccc(-c2ccc(Cl)cc2)o1 | -11.6% | 4.4 | -0.5 | -3.7 | -8.7% | -5.9 | 5.3%
O=C(CN1CCOCC1)Nc1c(Cl)cc(Cl)cc1Cl | -1.1% | 6.4 | 1.2 | 0.1 | 9.3% | 1.8 | -1.1%
CCCCC(=O)Nc1c2c(nn1-c1cccc(C)c1C)CS(=O)(=O)C2 | 2.1% | . | . | 4.5 | 6.9% | -9.6 | -0.5%
Cc1nc(C(=O)NCC(=O)c2ccc(Cl)cc2)c(C(F)(F)F)o1 | . | -26.5 | 0.6 | 0.6 | 10.2% | 5.6 | -1.2%
CCCCn1nnnc1C(c1ccccc1)N1CCN(C(=O)c2ccco2)CC1 (configuration not stated) | -13.6% | . | -0.4 | . | . | . | -0.7%
CC(=O)OC1CCC2(C)C(CCC3C2CC(=NO)C2(C)C(C(C)OC(C)=O)CCC32)C1 (configuration not stated) | 1.6% | 18.5 | 2.5 | . | . | . | 6.6%
Cc1cccc2c(N)c3c(nc12)CCCC3 (tested in a mixture with another compound) | 3.8% | 11.0 | -0.1 | 4.5 | 10.7% | -1.1 | 2.9%
O=C(COc1ccc2c(c1)OCO2)Nc1nncs1 | . | 23.4 | 0.2 | 2.0 | -2.6% | -0.5 | 0.6%
CCOc1ccc(NC(=O)c2c(NC(=O)c3cccs3)sc3c2CCC(C(C)(C)C)C3)cc1 (configuration not stated) | -20.6% | 2.3 | -0.2 | . | . | . | 2.0%
CCN(C(=O)CSc1cc(C)c2ccccc2n1)c1c(N)n(Cc2ccccc2)c(=O)[nH]c1=O | 0.9% | 12.6 | 0.6 | 5.9 | -8.5% | -7.2 | -0.7%
